D2 ag – agonists of human D2 dopamine receptor (beta-arrestin) | activation, % (concentration not given with the values) | DiscoveRx PathHunter D2 beta-arrestin, luminescence, 90 min; 100% = 57 uM dopamine signal | actives 0.084% (n = 360,000) | P14416 | AID 624465; in the data active = activation above about 40%; inconclusive = about 15% to 40%; inactive = below about 15%; also: compound concentration not given in the record; the text of the record calls up to 30% inactive
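DiscoveRx PathHunter D2 beta-arrestin cells (2,100/well) attached overnight, then compound-stimulated 90 min at 37 C in HBSS/10 mM HEPES/0.1% Tween-20 buffer; beta-galactosidase complementation read by luminescence after 1 h at ambient temperature. Dopamine 57 uM final (EC100) as control.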
D2 PAM – positive allosteric modulators of human D2 dopamine receptor | P14416 | DiscoveRx D2 beta-arrestin cells, luminescence, 90 min; 100% = 57 uM dopamine signal | potentiation, % (concentration not given with the values) | actives 0.23% (n = 360,000); active = potentiation of 50% or more; inconclusive = 30% to 50%; inactive = 30% or less;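 also: compound concentration not given in the record; tested on top of an EC20 dose of dopamine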
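D2 cells co-treated with compound plus 50 nM dopamine (EC20) for 90 min at 37 deg C to detect potentiation. Beta-arrestin recruitment was read as enzyme-fragment luminescence after 1 h at ambient temperature. Full response was set by 57 uM dopamine.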
CtBP-E1A inh – blocks the CtBP interaction with E1A; AlphaScreen GST-E1A/His-CtBP binding, 1536-well; stronger effect = lower value; control for the full effect not named in the record; actives 0.49% (n = 340,000); activity change, % (no concentration beside the values); AID 651724; in the data active means activity change below about -65%; inconclusive means about -30% to -65%; inactive means above about -30%; also: % is scaled to controls: 0 for no effect and ±100 for the full control effect; compound concentration not given in the record
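AlphaScreen with 125 nM GST-E1A and 125 nM His-CtBP (5X stocks) in Tris pH 8.0, 300 mM NaCl, BSA, Tween 20, TCEP. Compounds preincubated 2 h at 37 deg C, then glutathione donor/nickel acceptor beads added for 1 h at 37 deg C in dark.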
gsp antagonist – antagonists of gsp mutant (McCune-Albright syndrome) | Potency, µM (highest dose often 76.9 µM), inactives show top-dose activity change, negative = inhibition, actives largely listed as inhibitors | gsp-mutant cells, cAMP HTRF, 30 min; control for the full effect not named in the record | actives 0.4% (n = 340,000) | AID 624288; active = falling curve of any shape with a large fitted effect; inconclusive = falling curve, mostly with a smaller effect; inactive = flat or rising curve; cell line not stated here;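 also: intracellular cAMP measured with PDE inhibitor Ro 20-1724 present during compound exposure; potency is read from the fitted curve at half-maximal effect; % is scaled to controls: 0 for no effect and ±100 for the full control effect; nearly all actives have a fitted effect of over 65% in size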
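Measurement of cellular cAMP by homogeneous time-resolved fluorescence following a 30 min compound exposure at 37C. The PDE inhibitor […] was present throughout; the assay buffer was DPBS with 0.05% BSA and 0.005% Tween 20.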
gsp ag – gsp mutant agonism; actives 0.13% (n = 340,000); Potency, µM (top dose mostly 76.9 µM), for inactives: at the highest dose activation (cAMP increase), most hits filed as activators; gsp mutant cells, cAMP HTRF, 30 min; control for the full effect not named in the record; active = well fitted activation curve with a large enough effect; inconclusive = small, poorly fitted or top-dose-only effect, or another doubt; inactive = no such curve, though single readings can be large or run the other way; cell line not stated here;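 also: phosphodiesterase inhibitor Ro 20-1724 added with compounds to block cAMP breakdown; potency is read from the fitted curve at half-maximal effect; nearly all actives have a fitted effect of over 60% in size; about a fifth of the inactives were tested at one dose only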
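Cells stably selected in G418 were plated at 2000/well, grown 16-24 hr, then given compounds in DMSO with the PDE inhibitor […] (300 uM solution added) for 30 min at 37C; cAMP was read by HTRF.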
Six1-Eya2 blk – inhibitors of human Six1/Eya2 interaction. Q15475+O00167. AlphaScreen GST-Six1/His-Eya2 binding, biochemical; stronger effect = lower value; control for the full effect not named in the record. activity change, % (no concentration beside the values). actives 0.56% (n = 360,000). AID 651725; in the data active = activity change below about -65%; inconclusive = about -30% to -65%; inactive = above about -30%; also: % is scaled to controls: 0 for no effect and ±100 for the full control effect; compound concentration not given in the record
Target sequence (O00167 whole entry, looked up): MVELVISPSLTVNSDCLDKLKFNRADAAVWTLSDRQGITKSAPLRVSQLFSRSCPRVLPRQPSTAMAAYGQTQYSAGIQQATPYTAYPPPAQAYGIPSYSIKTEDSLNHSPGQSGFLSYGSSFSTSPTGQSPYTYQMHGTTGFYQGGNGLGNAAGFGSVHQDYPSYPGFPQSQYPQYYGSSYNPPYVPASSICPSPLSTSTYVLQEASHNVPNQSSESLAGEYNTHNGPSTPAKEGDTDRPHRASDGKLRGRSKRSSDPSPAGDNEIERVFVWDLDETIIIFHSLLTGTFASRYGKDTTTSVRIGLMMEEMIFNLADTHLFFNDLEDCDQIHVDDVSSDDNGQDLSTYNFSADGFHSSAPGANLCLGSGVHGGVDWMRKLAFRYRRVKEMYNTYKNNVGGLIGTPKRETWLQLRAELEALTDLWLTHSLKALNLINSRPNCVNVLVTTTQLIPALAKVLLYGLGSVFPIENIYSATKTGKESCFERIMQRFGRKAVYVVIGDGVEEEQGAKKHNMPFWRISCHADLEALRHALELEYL
Target sequence (Q15475 whole entry, looked up): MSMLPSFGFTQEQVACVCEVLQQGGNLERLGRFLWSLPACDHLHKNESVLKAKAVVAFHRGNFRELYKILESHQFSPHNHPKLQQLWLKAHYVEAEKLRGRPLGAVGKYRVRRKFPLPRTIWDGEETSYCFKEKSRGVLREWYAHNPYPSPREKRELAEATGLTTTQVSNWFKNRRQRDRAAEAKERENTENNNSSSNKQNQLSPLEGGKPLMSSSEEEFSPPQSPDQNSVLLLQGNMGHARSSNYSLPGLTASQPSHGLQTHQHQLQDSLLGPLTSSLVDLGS
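Compounds are tested against tagged Six1 and Eya2 proteins bridged by glutathione donor and nickel acceptor beads; after a one-hour incubation at 37 °C without light, AlphaScreen emission is recorded.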
* marks the source's active call; other numbers are inactive results; ? = inconclusive; . = no result given; [ ] = dose if it differs, or a comment.

gsp ag	Six1-Eya2 blk	CtBP-E1A inh	gsp antagonist	D2 PAM	D2 ag	Molecule
?	-5	-4	5%	-17	-2.3	CCn1c(/C=C/N(C(C)=O)c2ccccc2)[n+](CC)c2ccc(Cl)cc21
8%	11	7	-21%	-39	1.3	CCN(CC)S(=O)(=O)c1cc(C(=O)N(C)CC(=O)Nc2ccc(Cl)cc2)ccc1Cl
21%	-1	-22	-16%	6	-2.4	CCN=C1Sc2nc3ccc(OCC)cc3cc2CN1CCOC
-3%	2	4	-8%	-15	-2.8	C[C@H](CO)N1C[C@H](C)[C@@H](CN(C)C(=O)Nc2ccc(C(F)(F)F)cc2)Oc2c(cccc2N(C)C)C1=O
9%	0	9	7%	-20	-5.4	CCOC(=O)C1=C(CNC2CCCCC2)NC(=O)NC1c1cc(C)ccc1C (configuration not stated)
?	1	-10	9%	-22	-0.1	CCCN1C2CCCC1CC(NC(=O)c1ccccc1)C2 (configuration not stated)
7%	-4	14	11%	-10	3.1	CC1CCN(CCC(=O)Nc2ccccc2)CC1
2%	1	4	-4%	-16	-2.6	Cc1ccc(S(=O)(=O)N2CCN(CC(=O)N(CC(C)C)c3c(N)n(CC(C)C)c(=O)[nH]c3=O)CC2)c(C)c1

(more compounds)
gsp ag	Six1-Eya2 blk	CtBP-E1A inh	gsp antagonist	D2 PAM	D2 ag	Molecule
21%[15.4 µM]	-24	-18	?	2	-0.5	COc1cc2ccccc2cc1C(=O)NC(=S)Nc1cccc(C(=O)O)c1C
-1%[15.4 µM]	2	11	-24%	-8	1.9	CC(=O)N1CCCc2cc(S(=O)(=O)Nc3ccc(C)cc3C)ccc21
-24%	6	.	-1%	-16	-7.2	COc1ccc(CCNC(=O)CNCCc2ccc(F)cc2)cc1
-14%[15.4 µM]	-1	4	-13%	-2	-6.0	CN(C)c1ccc(/C=C2\SC(=O)N(CCc3nnc(N)s3)C2=O)cc1
.	8	6	7%	-3	-3.5	C[C@H]1CN=C(N(C)C)N1CC1CCC(C(C)(C)C)CC1 (some centres not stated)
2%[15.4 µM]	-7	.	-10%	-14	1.4	N#Cc1cnn2c3c(cnc12)C(=O)N1CCc2ccccc2C1C3 (configuration not stated)
10%	0	2	-11%	4	-3.0	COC(=O)c1cccc(N(C(=O)c2cnccn2)C(C(=O)NCc2ccccc2)c2ccco2)c1 (configuration not stated)
-4%[15.4 µM]	3	.	6%	-4	5.7	O=C(O)C1CC=CCC1C(=O)NNc1c(Cl)cc(Cl)cc1Cl (configuration not stated)

Continuation.
gsp ag	Six1-Eya2 blk	CtBP-E1A inh	gsp antagonist	D2 PAM	D2 ag	Molecule
-1%	-18	-19	-17%	-20	1.2	Cc1ccc(-n2c(SCC(=O)N/N=C/C=C/c3ccccc3[N+](=O)[O-])nc3ccccc3c2=O)cc1
0%[15.4 µM]	5	5	-3%	-19	0.1	COCc1cc(=O)[nH]c(SC)n1
-20%	-6	0	?	-2	-0.8	CCOc1ccc(CCNC(=O)c2cc(-c3ccccc3)c(N3CCOCC3)s2)cc1
-36%[inhibitor]	-20	-15	11%	-13	1.3	COc1cc(NC(=O)CSc2nc3ccccc3n2-c2ccccc2)c(C)cc1[N+](=O)[O-]
-27%	-5	4	9%	-9	-5.0	CCOc1ccc(CCNC(=O)COC(=O)c2sccc2C)cc1OCC
10%	6	3	1%	0	-2.3	CCOC(=O)c1cn[nH]c1N
?	-6	-1	23%	-5	-0.6	O=C(Cn1c(=O)c2cccn2c2ccccc21)NCCc1ccc(Cl)cc1
?	-10	-5	-3%	-3	1.4	CC(=O)C1=C(O)C(=O)N(Cc2ccccc2)C1c1ccc(Cl)cc1 (configuration not stated)

Following part.
gsp ag	Six1-Eya2 blk	CtBP-E1A inh	gsp antagonist	D2 PAM	D2 ag	Molecule
-12%	3	4	0%	-6	1.1	COc1ccccc1C(=O)Nc1ccncc1
2%	?	-5	-3%	-7	3.0	COCCN=c1scc(-c2cccs2)n1/N=C(\C)c1ccco1
7%	14	3	?	7	2.5	CCN(CC)S(=O)(=O)c1cc(OC)c(Cl)cc1Cl
2%	7	-2	2%	0	-3.5	COc1cc(NC(=O)Cc2ccccc2)ccc1NC(=O)Cc1ccccc1
-18%	-9	-5	-6%	-6	-2.4	COc1ccc(-c2[nH]ncc2CN(C)CCc2c(C)n[nH]c2C)c(F)c1
-15%[15.4 µM]	7	-17	6%	5	-3.3	CCN(CC(=O)Nc1ccccc1C(F)(F)F)C(=O)CN1C(=O)NC2(CCCC2)C1=O
1%	5	0	7%	-7	-0.7	CN(CC(=O)Nc1c(Cl)cccc1Cl)C(=O)CNC(=O)c1ccco1
-14%	1	5	0%	-2	-2.9	CCOC(=O)N1CCN(C(=O)c2cc3cc(Br)ccc3oc2=O)CC1

Quoted from the entries so far (two entries):
gsp ag	Six1-Eya2 blk	CtBP-E1A inh	gsp antagonist	D2 PAM	D2 ag	Molecule
2%	7	-2	2%	0	-3.5	COc1cc(NC(=O)Cc2ccccc2)ccc1NC(=O)Cc1ccccc1
-18%	-9	-5	-6%	-6	-2.4	COc1ccc(-c2[nH]ncc2CN(C)CCc2c(C)n[nH]c2C)c(F)c1

(more compounds)
gsp ag	Six1-Eya2 blk	CtBP-E1A inh	gsp antagonist	D2 PAM	D2 ag	Molecule
?	-6	-2	2%	-15	1.0	Cc1c(C(=O)O)cccc1-c1ccc(C=O)o1
-15%	-1	2	-11%	-6	-3.4	CCOC(=O)c1c(C)[nH]c(C)c1S(=O)(=O)N(C)Cc1ccco1
.	-9	-1	0%	-29	0.3	C[C@@H]1C[C@@H]2OC(=O)[C@]3(C)[C@H]2[C@@H](OC3(C)O)[C@]2(C)C(=O)C=C[C@H]12 (some centres not stated)
6%[15.4 µM]	-17	0	-13%	-10	-6.3	CCc1ccc(N2CC(C(=O)NC3CCCCC3C)CC2=O)cc1 (configuration not stated)
3%[15.4 µM]	-11	4	0%	-2	2.0	COc1ccc(NS(=O)(=O)c2cccc(C(=O)NNC(=O)c3ccc(Br)o3)c2)cc1
1%	2	1	10%	-20	-5.6	N#Cc1c(F)cccc1N1CCOCC1
14%	6	.	7%	2	-2.1	NS(=O)(=O)c1ccc(CCNC(=O)CN2CCCCCC2)cc1
-3%[15.4 µM]	-9	-3	-12%	2	5.7	COC(=O)CCCNC(=O)c1ccc(OS(=O)(=O)c2cc([N+](=O)[O-])ccc2C)cc1

Carrying on:
gsp ag	Six1-Eya2 blk	CtBP-E1A inh	gsp antagonist	D2 PAM	D2 ag	Molecule
17%[15.4 µM]	-7	1	4%	-16	-2.8	CC1(C)NC(=S)NC1=S
-1%	-1	-3	-13%	10	10	C/C(N)=C(/C#N)C(=O)CSc1nnc(Nc2ccccc2)s1
2%	4	3	-10%	3	1.2	O=S(=O)(c1ccc(C2CCCCC2)cc1)N1CCN(c2ncccn2)CC1
9%	5	8	3%	-6	-1.2	Cc1ccccc1S(=O)(=O)Cc1ccc(C(=O)NC2CCCC2)o1
-13%	3	-9	1%	7	-3.8	COC(=O)c1nc(NC(=O)c2ccc(Br)cc2)n[nH]1
0%	?	.	0%	-19	0.1	CC1CCC2C(=O)N(c3ccc(NC4CCN(Cc5ccccc5)CC4)c([N+](=O)[O-])c3)C(=O)C2C1 (configuration not stated)
18%	-3	3	14%	1	-0.1	Cn1nnnc1SCC(=O)c1c(N)n(C2CC2)c(=O)[nH]c1=O
.	6	6	.	-2	6.6	CC(C)(C)c1ccc(CC(=O)N2CCC2(C)C(=O)NCCC#N)cc1 (configuration not stated)

Ordered by the number under Six1-Eya2 blk (highest first): some entries from above.
gsp ag	Six1-Eya2 blk	CtBP-E1A inh	gsp antagonist	D2 PAM	D2 ag	Molecule
1%	2	1	10%	-20	-5.6	N#Cc1c(F)cccc1N1CCOCC1
9%	0	9	7%	-20	-5.4	CCOC(=O)C1=C(CNC2CCCCC2)NC(=O)NC1c1cc(C)ccc1C (configuration not stated)
-15%	-1	2	-11%	-6	-3.4	CCOC(=O)c1c(C)[nH]c(C)c1S(=O)(=O)N(C)Cc1ccco1
.	-9	-1	0%	-29	0.3	C[C@@H]1C[C@@H]2OC(=O)[C@]3(C)[C@H]2[C@@H](OC3(C)O)[C@]2(C)C(=O)C=C[C@H]12 (some centres not stated)
?	-10	-5	-3%	-3	1.4	CC(=O)C1=C(O)C(=O)N(Cc2ccccc2)C1c1ccc(Cl)cc1 (configuration not stated)

Remaining list, next part.
gsp ag	Six1-Eya2 blk	CtBP-E1A inh	gsp antagonist	D2 PAM	D2 ag	Molecule
-50%[inhibitor]	0	7	3%	-18	-2.0	COCCCNC(=O)Cn1nnc(-c2ccc(NC(=O)c3ccc(F)cc3)cc2)n1
18%	-25	-15	-14%	-15	-2.9	COc1ccccc1NS(=O)(=O)c1cc(NC(=O)c2sccc2C)ccc1N1CCOCC1
3%	-13	-1	-4%	-4	-6.9	CC(C(=O)c1ccc(-c2ccccc2)cc1)[n+]1cccc(Br)c1 (configuration not stated)
-15%	-3	0	10%	-38	-4.2	COC(=O)c1ccc(CSc2nc3ccccc3c(=O)n2-c2ccccc2)o1
-38%[inhibitor]	-1	0	1%	1	1.5	COCCn1c(=NC(=O)CSCC(=O)N2CCOCC2)sc2cc(C)ccc21
-10%[15.4 µM]	24	0	-17%	-9	1.5	COc1ccc(OCCN2CCN(S(=O)(=O)c3ccccc3C#N)CC2)cc1
3%	6	.	0%	-16	-5.2	CCCCCC[N+](C)(C)CCSSCC[N+](C)(C)CCCCCC
-34%	-12	-10	-4%	6	0.8	COCc1cc(C)nc(SCC(=O)c2ccc(O)c(O)c2)c1C#N

Remaining list, next part:
gsp ag	Six1-Eya2 blk	CtBP-E1A inh	gsp antagonist	D2 PAM	D2 ag	Molecule
22%[15.4 µM]	3	-2	-5%	-2	-1.9	Cc1ccc(C(=O)NCC2CCCN2S(=O)(=O)c2ccc(C)cc2)cc1 (configuration not stated)
17%	-92*	-95*	-2%	-21	-3.8	O=C(N/N=C/c1ccccc1O)C1SCCCS1
-26%	-1	2	-14%	-13	-0.1	CCNc1c(N)c(=O)oc2ccccc12
4%	-1	.	0%	1	-2.6	CCCCN(C(=O)c1cc2ccccc2o1)c1c(N)n(CCCC)c(=O)[nH]c1=O
4%	-14	-5	-26%	1	-1.9	COc1cc([C@@H]2c3cc4c(cc3[C@@H](O)[C@H]3COC(=O)[C@H]23)OCO4)cc(OC)c1O[Si](C)(C)C(C)(C)C
?	6	3	-7%	-4	-1.0	O=C(CCNS(=O)(=O)c1ccc(Br)s1)NCc1ccc(F)cc1
17%	7	6	8%	3	-0.8	CC(C)C(NS(=O)(=O)c1cccc2nsnc12)C(=O)NCc1ccco1 (configuration not stated)
-4%	3	-2	2%	-6	1.5	CCOc1ccc(N(CC)S(=O)(=O)c2c(C)[nH]c(=O)[nH]c2=O)cc1

Source: PubChem
